Rango complex inh: prevents formation of the Rango-importin beta complex; Q14974; Rango CFP/YFP FRET sensor + importin beta, 45 min; Potency, µM (highest dose often 92.2 µM), inactives show top-dose inhibition of complex formation; 0.031% of 340,000 active; AID 540263; active = rising FRET ratio curve, often small or poorly fitted; inconclusive = mostly compound fluorescence or quenching in the first reads; inactive = flat curves in all reads;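 also: potency is read from the fitted curve at half-maximal effect; 0% = DMSO wells and 100% = buffer wells lacking importin beta; nearly all actives have a fitted effect of over 15% in size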
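Inhibition scored from the CFP 486 nm/YFP 530 nm FRET ratio 45 min after adding 0.125 microM importin beta to 50 nM Rango biosensor preincubated 5 min with compound (room temperature, PBS with DTT, Tween-20, BSA). No-importin wells as positive control.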
miR-21 FLuc: raises the signal of a miR-21 reporter; HeLa miR-21 FLuc reporter, luciferase, 48 h; AID 2288; 340,000 tested, under 10 active; Potency, µM (doses to about 38.3 µM), for inactives: at the top dose reporter change, positive = more light; active = well fitted rising curve with a large enough effect; inconclusive = small, poorly fitted or top-dose-only effect; inactive = no such curve, though single readings can be large or run the other way;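 also: % of control where 0% means no effect; miR-21 action dims this reporter so a rising signal means less miR-21 action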
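Using DMEM plus 10% FBS, HeLa miR-21-FLuc cells are incubated with test compounds (final up to about 40uM) for 48 hours; firefly luciferase signal is then imaged following reagent-mediated lysis.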
GLA inh pH 4.5: blocks human alpha-galactosidase A at pH 4.5; P06280; 230,000 tested, under 10 active; AID 1467; activity change, negative = inhibition, % at 105 µM; purified enzyme, 4-MU-alpha-Gal fluorescence, pH 4.5; inconclusive = small, poorly fitted or top-dose-only inhibition, or a rising curve; inactive = flat fitted curve, though single readings scatter; no compound was filed as active;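 also: 0% = full activity with enzyme and -100% = basal without enzyme; dose as in the result columns while the protocol names 77 µM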
Target sequence (P06280 whole entry, looked up): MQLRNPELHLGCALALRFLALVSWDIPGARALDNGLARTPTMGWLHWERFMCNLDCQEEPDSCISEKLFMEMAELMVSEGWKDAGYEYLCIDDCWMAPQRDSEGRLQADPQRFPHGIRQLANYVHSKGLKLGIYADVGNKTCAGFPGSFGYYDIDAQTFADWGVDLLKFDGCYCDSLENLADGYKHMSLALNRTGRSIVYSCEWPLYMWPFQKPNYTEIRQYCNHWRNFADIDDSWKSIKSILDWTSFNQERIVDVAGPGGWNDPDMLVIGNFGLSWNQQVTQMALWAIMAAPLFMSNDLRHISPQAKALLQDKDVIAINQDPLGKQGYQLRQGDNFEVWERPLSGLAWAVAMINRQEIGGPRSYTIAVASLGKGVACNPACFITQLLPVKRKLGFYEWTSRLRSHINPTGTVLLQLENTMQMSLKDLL
Rango dissoc inh: inhibitors of RanGTP-induced Rango-importin beta complex dissociation; O95149+P62826; Biochemical FRET Rango-importin beta, RanGTP-induced dissociation; Potency, µM (titrated, usually from 46.1 µM), inactives show at the top dose activity change, negative = inhibition; 0.071% of 340,000 active; AID 540253; active means falling FRET ratio curve, often poorly fitted, with flat reads before Ran was added; inconclusive means other falling curves, or compound fluorescence or quenching; inactive means flat or rising ratio curve;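 also: potency is read from the fitted curve at half-maximal effect; % of control where 0% means no effect; nearly all actives have a fitted effect of over 45% in size; -100% = wells without RanGTP and RCC1; the record marks most hits as doubtful in a second field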
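Rango (0.1 uM)–importin beta (0.25 uM) complex; RanGTP-RCC1 trigger; 45 min RT; CFP/YFP FRET read.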
Numbers without * were called inactive; ? = inconclusive; · = not tested or not shown; & = joins results of further samples.

SMILES	Rango complex inh	miR-21 FLuc	GLA inh pH 4.5	Rango dissoc inh
COC(=O)C1C2C=CC3(CN(c4ccc(Cl)c(F)c4)C(=O)C13)O2 (configuration not stated)	-1.7%	1%	5	13%
COc1ccc([C@@H]2C[C@H]3CN(c4ccccc4)C(=O)[C@]34CCCN24)c(OC)c1OC	0.7%	-5%	3	-10%
CC(=O)Nc1ccc(S(=O)(=O)NCCC(=O)NC(C)c2cccs2)cc1 (configuration not stated)	-4.0%	·	·	-14%
CC1CCCCN1C(=O)COC(=O)c1cccc(NS(=O)(=O)c2ccccc2)c1 (configuration not stated)	-2.7%	·	·	10%
O=C(Nc1nnc(C2CC2)s1)c1n[nH]c(=O)c2ccccc12	-2.3%	-4%	-2	-9%
Nc1nc(Nc2ccccc2F)nc(NCCO)c1[N+](=O)[O-]	-5.2%	-27%	-14	3%
C=C1C(=O)[C@@]23[C@H](O)C[C@@H]4C(C)(C)CC[C@H](O)[C@]4(C)[C@@H]2C[C@H](O)[C@@H]1[C@H]3O	0.3%	?	0	0%
CC(NC=C1C(=O)OC(C)(C)OC1=O)C(=O)O (configuration not stated)	7.0%	3%	4	1%
CCOC(=O)Cn1c(=O)c2c(nc(Br)n2Cc2ccccc2Cl)n(C)c1=O	-2.2%	-5%	-9	0%
Cc1cc2cc(CNC(=O)c3cccs3)ccc2[nH]1	?	-11%	18	-21%
CC1(C)CC(=O)C2=C(C1)OC1OC(=O)CC21C (configuration not stated)	-0.8%	4%	-9	7%
Cc1ccc(NC(=O)COc2ccc(Br)cc2CO)cc1S(=O)(=O)N1CCOCC1	-1.2%	·	·	5%
Cc1snc(S(=O)(=O)Cc2c(Cl)cccc2Cl)c1C#N	-1.2%	8%	-12	9%
Cc1cc(N/N=C/c2cccc(Cl)c2)nc(NCc2ccccc2)n1	-1.4%	-3%	-10	-14%
COCCNC(=S)Nc1ccccc1Cc1ccccc1	1.1%	-3%	-7	26%
OCC1(CCc2ccccc2)CCN(Cc2ccc(OC(F)F)cc2)CC1	0.8%	1%	-2	-13%
O=C(c1ccc(-n2cccn2)cc1)N1CCN(c2ncccc2C(F)(F)F)CC1	0.5%	4%	·	15%
COC(=O)CCCC(=O)N1CCCC(C(=O)c2ccccc2SC)C1 (configuration not stated)	-2.9%	-5%	·	-11%
O=c1[nH]c2ccccc2c(O)c1-c1ccccc1[N+](=O)[O-]	6.1%	2%	-5	18%
O=C(O)[C@@H]1[C@@H]2C[C@@H]2CN1c1ncccc1[N+](=O)[O-]	?	6%	6	-5%
NC(=O)c1c(NC(=O)c2ccncc2)sc2c1CCCCCC2	1.6%	-4%	·	11%
CC(=O)Nc1ccc(NC(=O)c2c(C)noc2C)cc1	2.4%	-1%	·	13%
COc1cccc(C=NCC(C)N=Cc2cccc(OC)c2O)c1O (configuration not stated)	-2.2%	0%	-8	-2%
Cc1c(C(=O)Nc2c(F)cc(F)cc2Br)sc2ncn(CC(=O)N3CCCC3)c(=O)c12	0.0%	0%	·	-11%
CCCc1nc(SCC(=O)Nc2ccccc2OC)c2c(=O)n(C)c(=O)n(C)c2n1	2.4%	-2%	-1	4%
N#Cc1c(-c2ccccc2)cc(C2CC2)nc1SCC(=O)c1cccs1	?	-11%	5	?
COc1ccc(OC)c(N(/C(N)=N/c2nc(C)cc(C)n2)S(=O)(=O)c2ccc(NC(C)=O)cc2)c1	3.4%	8%	·	-23%
CC(SCc1ccccc1)C(=O)NCc1ccccn1 (configuration not stated)	4.6%	-4%	4	-1%
CCN(CC(=O)NCc1cccs1)C(=O)c1ccc(S(=O)(=O)N(C)c2ccccc2)cc1	0.6%	·	·	12%
c1ccc(Cn2cc(CN3CCCCO3)c(-c3ccc4c(c3)OCO4)n2)cc1	11%	-1%	0	-11%
COc1ccc(-c2ccnc3[nH]n(-c4ccccc4)c(=O)c23)cc1	-0.9%	4%&6%	·	0%
CC(=O)NS(=O)(=O)c1ccc(NC(=O)CC23CC4CC(CC(Br)(C4)C2)C3)cc1	-1.1%	-2%	·	-2%
CC1CC(C)CN(CC(=O)N2CCCc3c2c(=O)oc2ccc(OCc4ccccc4)cc32)C1 (configuration not stated)	-0.1%	-1%	-2	-8%
Cc1ccc(-c2nnc(NCc3nc4ccccc4[nH]3)c3ccccc23)cc1S(=O)(=O)N(C)C	3.8%	?	1	-3%
COC(=O)c1cnc2c(c1C(=O)OC)c(=O)n(C)c(=O)n2C	-1.8%	-1%	-1	4%
O=C(NCC(=O)N1CCN(c2ccc(C(F)(F)F)cn2)CC1)c1ccc(Br)o1	-1.0%	·	·	-5%
O=c1c2ccccc2nnn1CSc1ccc2c(c1)OCCO2	0.4%	-48%	-9	1%
COC(=O)C1=C(C)NC(=O)NC1c1ccc2ccccc2c1 (configuration not stated)	-1.3%	8%	·	12%
CC(=O)Nc1ccc(S(=O)(=O)NNC(=O)NC23CC4CC(CC(C4)C2)C3)cc1	0.6%	-7%	·	-4%
Cc1nc(SCc2cccc(F)c2)[nH]c(=O)c1C#N	-1.4%	-6%	4	2%
COc1ccc(Cl)cc1NC(=O)CN1c2ccccc2CC1C (configuration not stated)	-1.5%	0%	-5	-10%
Nc1nnc(SCc2cn3cc(Cl)ccc3n2)s1	4.3%	-59%	-3	-13%
CN(CC(=O)Nc1ccc(F)cc1)C(=O)CN1C(=O)c2cccc([N+](=O)[O-])c2C1=O	-6.5%	·	·	-10%
COc1cc(/C=C2\SC(=Nc3ccccc3)NC2=O)cc(Cl)c1O	?	-30%	·	?
COc1ccc2[nH]c3c(c2c1)CCN1C(=O)C(CC(=O)NCc2ccco2)C[C@H](C(=O)N2CCOCC2)[C@@]31CCC1CCCC1 (some centres not stated)	?	·	·	5%
Cc1ccc(S(=O)(=O)N(C)C)cc1NC(=O)COC(=O)CCC(=O)c1ccc(F)cc1	-1.9%	-7%	-9	-23%
Cc1cccc(OCC(O)Cn2c(NCCCOC(C)C)nc3c2c(=O)[nH]c(=O)n3C)c1 (configuration not stated)	6.5%	0%	-15	10%
COc1cc(/C=C2\CCOC2=O)cc(OC)c1OC	-0.1%	6%	3	2%
Cc1ccc(/C=N/NC(=O)c2nnn(-c3nonc3N)c2CN(C)C)s1	-0.2%	1%	·	3%
COc1ccc(-c2nnn(Cc3ccccc3)n2)cc1OC	0.0%	-30%	·	1%
CCOc1ccccc1NC(=O)C(=O)NCCC1=CCCCC1	-2.4%	-2%	6	6%
CC(Sc1ncnc2sccc12)C(=O)Nc1ccc(C(N)=O)cc1 (configuration not stated)	-3.5%	-7%	-23	3%
COc1ccc(OC2C(=O)N(Cc3ccc4c(c3)OCO4)C2c2sccc2C)cc1 (configuration not stated)	-0.1%	18%	-4	-4%
COc1cc(CN2CCN(c3cccc(Cl)c3)CC2)cc(OC)c1OC	0.9%	19%	-2	17%
Cc1nn2c3ccccc3n(CC(=O)c3cccs3)c2nc1=O	3.5%	0%	-28	-4%
Nc1c(C(=O)OCC(=O)Nc2cccc([N+](=O)[O-])c2)[nH]c(=O)[nH]c1=O	-0.8%	·	·	-6%
CC(C)NC(=S)Nc1ccc(S(=O)(=O)Nc2ncccn2)cc1	2.7%	-2%	4	8%
COc1cnn(-c2ccc(C)cc2)c(=O)c1SCc1ccccc1	0.5%	-54%	-26	25%
COc1nc2c(C)cccc2cc1-c1noc(-c2ccncc2)n1	·	2%	5	·
CC1(C)OC(=O)C(=C2CCCN2)C(=O)O1	-1.9%	0%	7	-2%

One compound at a time, from the list above:
COc1cc(CN2CCN(c3cccc(Cl)c3)CC2)cc(OC)c1OC in the list: Rango complex inh: 0.9%; miR-21 FLuc: 19%; GLA inh pH 4.5: -2; Rango dissoc inh: 17%
CC(Sc1ncnc2sccc12)C(=O)Nc1ccc(C(N)=O)cc1 (configuration not stated) in the list: Rango complex inh: -3.5%; miR-21 FLuc: -7%; GLA inh pH 4.5: -23; Rango dissoc inh: 3%
COc1ccc(-c2nnn(Cc3ccccc3)n2)cc1OC in the list: Rango complex inh: 0.0%; miR-21 FLuc: -30%; GLA inh pH 4.5: ·; Rango dissoc inh: 1%

New compounds follow.
SMILES	Rango complex inh	miR-21 FLuc	GLA inh pH 4.5	Rango dissoc inh
Cc1ccc(-c2cc(C(=O)NCc3cnn(C)c3C)c3cc(Br)ccc3n2)cc1	3.2%	-24%&-23%	-4	8%
COCCOC(=O)C1=C(C)NC2=C(C(=O)CC(C)(C)C2)C1c1ccc2c(c1)OCO2 (configuration not stated)	-3.9%	-6%	-4	-3%
CCOC(=O)c1cc2c(=O)[nH]ccc2nc1C	3.6%	-10%	-3	5%
Cc1ccc2nc(Nc3ncc4c(n3)CC(C)(C)CC4=O)nc(C)c2c1	9.8%	-6%	1	7%
CCOC(=O)CSc1nc2c(c(=O)n(C)c(=O)n2C)n1CCCc1ccccc1	1.3%	-5%	4	21%
C/C(=N\Nc1ccccn1)c1ccc(Br)s1	5.5%	·	·	-6%
COc1ccc(C(=O)Nc2ccc(S(=O)(=O)NC(C)=O)cc2)cc1	0.0%	-9%	0	-4%
COc1cccc(N2CC(NS(=O)(=O)c3ccc4ccccc4c3)CC2=O)c1 (configuration not stated)	-2.8%	·	·	-9%
COC(=O)c1cc(=O)n(Cc2ccccc2)c(=NCc2ccccc2)s1	·	1%	4	·
CCCCC/C=N/NC(=O)c1[nH]c2ccc([N+](=O)[O-])cc2c1C	2.6%	22%	-3	-15%
CCCCCNC(=O)Cc1ccc(OC)cc1	2.3%	-18%	3	2%
O=C(Nc1ccc(Cl)cc1)C1CCC(=O)N1Cc1ccccc1Cl (configuration not stated)	15%	-3%	7	14%
O=C(Cc1cccs1)NCCn1ccc2ccccc21	?	-12%	6	9%
Cc1cccc(NC(=O)CSc2nccn2Cc2ccco2)c1C	-0.3%	-34%	·	16%
CSc1ccccc1OCc1cc(C(=O)NC(C)Cc2cccc(C)n2)no1 (configuration not stated)	0.4%	-3%	·	16%
N#Cc1c(NC(=O)CSc2nnc(-c3ccccc3)o2)sc2c1CCCC2	-0.4%	-4%	-2	-8%
COc1cc(/C=C/C(=O)OCC(=O)N2CCCc3ccccc32)ccc1OCC#N	6.7%	·	·	-18%
COc1ccc(C2(C)NC(=O)N(CC(=O)c3cc(C)n(C4CC4)c3C)C2=O)cc1 (configuration not stated)	-2.8%	·	·	-2%
O=S(=O)(c1cc(Br)ccc1Br)N1CCCCCC1	1.9%	-5%	·	16%
CC(/C=C/c1ccccc1)=N/NC(=O)c1cccc(Br)c1	0.5%	-17%	8	1%
COc1ccccc1NS(=O)(=O)c1ccc(C)c(C(=O)NCCCN2CCCC2=O)c1	2.1%	·	·	-6%
O=C(Nc1ccc(-n2cnnn2)cc1)C1CCCN1C(=O)NC1CCCCC1 (configuration not stated)	-2.7%	-2%	4	-14%
CCOC(=O)c1nc(C)[nH]c1C(=O)OCC	2.4%	0%	7	24%
O=C(NCc1cccs1)C1CCN(S(=O)(=O)c2cccc3nsnc23)CC1	3.0%	-4%	9	-4%
COCCn1c(SCC(=O)c2ccc3c(c2)OCCO3)nnc1-c1ccoc1C	-1.3%	-13%	2	-7%
Cn1c(=O)c2c(ncn2CC(=O)Nc2ccc(Cl)cc2Cl)n(C)c1=O	-1.0%	-5%	-3	-4%
CCOc1cc(N2CCOCC2)c(OCC)cc1NC(=O)COC(=O)C1CCCN1S(=O)(=O)c1ccccc1F (configuration not stated)	-1.6%	·	·	2%
CCc1cc(=O)oc2c(CNCc3c(F)cccc3Cl)c(O)ccc12	?	-8%	·	?
Cc1ccc(OCC(=O)NNC(=O)CCc2ccccc2)c(Br)c1	-0.7%	-3%	·	0%
COc1ccc(NC(=O)CN(C)S(=O)(=O)c2cccc3nsnc23)cc1	-1.4%	-1%&-2%	-2	-10%
CC(=O)c1ccc(OCc2cc(C(=O)N(C)CCN3CCOCC3)no2)cc1	-1.4%	-3%	·	54%
COCCN1CCc2c(C)nc3c(-c4ccc(OC)c(OC)c4)cnn3c21	-11%	-34%	-4	29%
Cc1cccc(C(=O)O/N=C/c2c(N3CCOCC3)n(C)c3ccccc23)c1	·	?	-1	·

Only part of the results is shown (hit frequency here may not be typical).
